Source: PubChem BioAssay (several laboratories)
Rce1 inhib: yeast Ras-converting enzyme inhibition | Q03530 | yeast membranes, quenched prenylated peptide cleavage fluorescence | calls only | hit rate 0.27% among 290,000 | AID 2563;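 active = fall in fluorescence gain of 50% or more versus controls, with final raw signal at or below 3038400; inconclusive = same 50% fall but final raw signal above 3038400; inactive = fall in fluorescence gain under 50%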;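 note: plate controls were neutral control wells for no effect and wells lacking membranes for full effect; tested at 10 µM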
Target sequence (Q03530 whole entry, looked up): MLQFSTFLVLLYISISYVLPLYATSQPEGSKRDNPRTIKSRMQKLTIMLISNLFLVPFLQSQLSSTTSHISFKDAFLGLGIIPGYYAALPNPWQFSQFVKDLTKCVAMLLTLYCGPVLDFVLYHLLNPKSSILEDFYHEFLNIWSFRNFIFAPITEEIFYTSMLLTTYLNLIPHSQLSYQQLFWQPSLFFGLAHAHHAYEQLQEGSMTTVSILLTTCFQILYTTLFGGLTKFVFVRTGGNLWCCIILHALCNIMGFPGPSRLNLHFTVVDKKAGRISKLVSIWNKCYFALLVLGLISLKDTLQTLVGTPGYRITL
eIF4H inh: inhibitors of RNA binding by human eIF4H; Q15056; eIF4H fluorescence polarization binding assay; inhibition, % at 35 µM; hit rate 0.94% among 290,000; AID 2012;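 active = 50% or more with normal probe brightness, or confirmed in later tests; inconclusive = above 50% with abnormal brightness, or retests that disagree; inactive = below 50% or failed in later tests; about a fifth of its hits are not listed in these tables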;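 note: calls also rest on retests at 20 µM and on dose response follow-up; 0% = protein and probe with vehicle and 100% = probe without protein; strong numbers were not always called active; many hits fall short of the cut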
PABP FP inh: PABP-poly(A) binding inhibition | P11940 | inhibition, % at 35 µM | hit rate 1% among 290,000 | PABP-poly(A) RNA binding, fluorescence polarization | AID 2014;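 active = 50% or more with normal probe brightness, or confirmed in later tests; inconclusive = above 50% with abnormal brightness, or retests that disagree; inactive = below 50% or failed in later tests; about a fifth of its hits are not listed in these tables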;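 note: calls also rest on retests at 20 µM and on dose response follow-up; controls were probe without protein and protein plus probe with vehicle; some compounds called inactive have numbers as strong as hits; many hits fall short of the cut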
CSC inhib: blocks cancer stem cells | cancer stem cell-like cells viability, luminescence | inhibition, % at 7.5 µM | hit rate 1.1% among 300,000 | AID 2717;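 active = mean at 75% or more and at least half the replicates too; inconclusive = mean and replicates disagree; tested in HMLE shEcad cells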;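 note: 0% = median of negative and 100% = median of positive control wells; the first replicate is given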
UUG fidelity: alters start codon recognition fidelity in yeast | S. cerevisiae UUG-firefly luciferase reporter, luminescence/redox ratio | activity score, % at 18.7 µM | hit rate 0.13% among 350,000;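 active = replicate mean at a twofold rise or more, about +100% in these data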;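 note: firefly luciferase made from a UUG start codon reports start codon fidelity; reporter light over untreated wells divided by growth signal over untreated wells; some hits fall short of that in this replicate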
MT1-MMP act inh: blocks activation of human MT1-MMP; hit rate 0.061% among 360,000; P50281; HT1080 RFP-PRO-GFP cells, GFP/RFP ratio fluorescence, overnight; percent of plate control window, DMSO zero; GFP/RFP ratio change, % at 20 µM;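 active = GFP/RFP ratio change of at least 30% with cell ATP level not reduced by more than half and red fluorescence within 50% of control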; note: strong numbers were not always called active
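Test system: HT1080 cells expressing an RFP-PRO-GFP fluorescent reporter construct / Compound dosing: single-point 20 µM compound, 1% DMSO / Schedule: cells overnight before dosing, compound overnight, 37 °C, 5% CO2 / Evaluation: GFP/RFP fluorescence ratio / Control set: DMSO and RFP-L50D-GFP cell wells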
Env fusion inh: blocks HIV Env-driven cell-cell fusion; HeLa-JRFL Env/CEM21 cell fusion, luciferase; inhibition, % at 12.3 µM; hit rate 1.1% among 360,000;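 active = mean replicate inhibition score of at least 50 and every replicate individually at or above 50; inconclusive = only one of the two criteria met; inactive = mean below 50 and not all replicates reaching 50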;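 note: 0% = plate neutral controls and 100% = maraviroc near 300 nM; one replicate is shown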
eIF4H inh retest: also measured in eIF4H inh; calls as there; inhibition, %; compound at 20 µM; confirmation average;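 mean of two retest wells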
PABP FP inh retest: further read-out of PABP FP inh, marked with its call; inhibition, %; compound at 20 µM; confirmation repeats;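 mean of two retest wells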
MT1-MMP act inh RFP: further read-out of MT1-MMP act inh, marked with its call; RFP signal change, %; measured here: RFP expression control read;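 0 = vehicle wells; hits needed this value within 50% of zero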
Starred values were filed as active, the others as inactive; i = inactive; u = inconclusive; x = no result given; & = joins results of further samples.

SMILES	Rce1 inhib	eIF4H inh	PABP FP inh	CSC inhib	UUG fidelity	MT1-MMP act inh	MT1-MMP act inh RFP	Env fusion inh	others
Cc1ccccc1N/N=C/c1ccc(N2CCOCC2)cc1	i	-2	0	17	-6	0	2	x
CSc1nc(O)c(N=Nc2ccc(F)cc2F)c(=O)[nH]1	i	5	0	6	-46	1	5	-24
CN1CCN(C2CCCCC2NS(=O)(=O)c2ccccc2)CC1 (configuration not stated)	i	6	11	-2	-11	-8	1	-4
CCOC(=O)C1CCN(S(=O)(=O)c2ccc3c(c2)CC(C)N3C(=O)C2CCC2)CC1 (configuration not stated)	i	4	6	2	-7	4	-5	4
COc1ccc(C(C(=O)NC(C)C)N(C(=O)CCC(=O)Nc2nccs2)c2ccccc2F)cc1 (configuration not stated)	i	0	7	11	13	3	-7	12
Cc1nc2nc(CSc3nnc(C)s3)cc(=O)n2[nH]1	i	-4	-4	-6	-14&-27	-1&-3	0&-1	-5&-90
COc1ccc(NC(=O)C/C(C)=N/NC(=O)COc2ccc(OC)cc2)cc1	i	12	4	-7	-26	2	3	-2
O=C(N=C1SC2CS(=O)(=O)CC2N1Cc1ccccc1)C1CCCCC1 (configuration not stated)	i	-10	-2	6	-11	1	2	-2
Cn1ncc(Cl)c1C(=O)Nc1cc(C(F)(F)F)ccc1F	i	-10	-3	-10	1	2	0	-478
C/C(NCCc1ccccc1)=C1/CCOC1=O	x	x	x	x	-20	2	3	7
O=C(Cc1ccc(S(=O)(=O)N2CCOCC2)s1)N1CCN(S(=O)(=O)c2ccc(Cl)cc2)CC1	x	x	x	52	-7	1	-5	70*
CC(C)CC(=O)Nc1cccc(-c2nc3ccccc3[nH]2)c1	i	60	-2	-15	-3	7	0	-22	eIF4H inh retest=-12;PABP FP inh retest=6
Cc1ccc(NC(=O)C(=O)NN)cc1	x	-4	-10	6	-2	4	6	-27
COc1cc(C(=O)n2cnc3ccccc32)c([N+](=O)[O-])cc1OC	i	-5	-12	-3	-30	4	2	-7
CCCCOc1ccc(C(=O)NC)cc1	i	1	-2	-1	-9	0	5	x
COc1ccc(C(C(=O)NC(C)(C)C)N(CCc2ccc(OC)c(OC)c2)C(=O)CCC(=O)Nc2cc(C)on2)cc1 (configuration not stated)	i	9	6	5	-16	-2	0	18
CC1CCN(CC(=O)Nc2cc(C(F)(F)F)ccc2Cl)CC1	i	2	-5	8	-3	-1	-2	x
COc1ccc(/C=N/NC(=O)CSc2n[nH]c(=O)[nH]c2=O)cc1	i	-9	5	-5	-1	2	9	8
c1cnc2c(c1)ncc1cscc12	i	2	-1	0	x	-6	-1	31
NC(N)=NS(=O)(=O)c1ccc(NC(=S)NC(=O)Cc2ccc(Cl)cc2)cc1	i	2	12	-7	-31	1	0	17
CCCn1nc(NC(=O)CC(C)C)c2cc3ccccc3nc21	i	-14	-3	-4	-18	-3	-4	-162
O=C(Cc1cccc2ccccc12)Nc1c(F)cccc1F	i	0	6	0	-11	-3	-4	6
O=C(CN1C(=O)CSC1=O)N1CCCC(Nc2ccc(F)cc2)C1 (configuration not stated)	i	19	19	-6	-18	-4	-3	x
CC(C)(C)c1ccc(C2CC2C(=O)N/N=C\c2ccc[nH]2)cc1 (configuration not stated)	i	28	-13	0	x	-42	-34	98*
CCc1ccccc1N1C(=O)C2CC=CCC2C1=O (configuration not stated)	i	-13	3	-6	-13	1	2	x

Four records drawn at random from the list so far:
SMILES	Rce1 inhib	eIF4H inh	PABP FP inh	CSC inhib	UUG fidelity	MT1-MMP act inh	MT1-MMP act inh RFP	Env fusion inh	others
C/C(NCCc1ccccc1)=C1/CCOC1=O	x	x	x	x	-20	2	3	7
COc1cc(C(=O)n2cnc3ccccc32)c([N+](=O)[O-])cc1OC	i	-5	-12	-3	-30	4	2	-7
Cc1ccc(NC(=O)C(=O)NN)cc1	x	-4	-10	6	-2	4	6	-27
COc1ccc(NC(=O)C/C(C)=N/NC(=O)COc2ccc(OC)cc2)cc1	i	12	4	-7	-26	2	3	-2

Next part
SMILES	Rce1 inhib	eIF4H inh	PABP FP inh	CSC inhib	UUG fidelity	MT1-MMP act inh	MT1-MMP act inh RFP	Env fusion inh	others
COCCNS(=O)(=O)c1ccc2c(c1)C(=O)c1cc(S(=O)(=O)NCCOC)ccc1-2	i	2	12	-15	-8	2	0	-6
C/C(N)=C(/C#N)C(=O)COC(=O)CNS(=O)(=O)c1ccc(C)cc1	i	11	4	-10	-17	1	6	-7
CC(=O)c1c(C)n(-c2ccccc2)c2ccc(O)cc12	i	12	4	3	-10	-6	-7	48
COc1ccc(CC(=O)NNS(=O)(=O)c2cccc([N+](=O)[O-])c2)cc1OC	i	16	8	x	-3	1	3	-1
CC(C)(C)c1ccc(OC(=O)Nc2ccc(O)c(C(=O)O)c2)cc1	i	5	-4	-9	-11	6	5	8
Cn1cccc1Cc1nnc(SCC(=O)NC2CCCC2)n1CCc1ccccc1	i	-1	3	-8	-13	0	3	-6
CCSc1nnc(NC(=O)CSc2nnc(C)c(=O)n2N)s1	i	3	7	-9	x	1	2	-10
Cc1cccc2c1-c1sc(C(=O)Nc3cccnc3)cc1CO2	i	-10	-8	-5	-8	3	-8	-1
Oc1nc(Nc2cccc(Cl)c2)sc1/C=C1\C=Nc2ccccc21	i	4	5	109*	-27	-4	-9	8
Fc1ccc(-c2[nH]ncc2CN(CC2CCC2)CC2CCCO2)c(F)c1 (configuration not stated)	i	15	-1	-11	-2	-1	0	0
COC(=O)[C@]1(C)N[C@H](CN(C)S(=O)(=O)c2ccc(F)cc2)[C@@H]2C(=O)N(Cc3ccccc3)C(=O)[C@@H]21	x	x	x	x	1	0	5	3
CCC(=O)NCCc1c[nH]c2ccccc12	i	-3	4	-8	-18	-2	-1	10
CCOC(=O)c1[nH]c2ccc(OC)cc2c1NC(=O)CN1CCc2ccccc2C1	i	-2	2	x	3	-5	-9	x
COc1ccc(C2/C=C\CN(C(=O)C3CCCC3)[C@H](Cc3ccccc3)C(=O)N2Cc2ccc(F)cc2)cc1 (some centres not stated)	i	-13	-2	11	-1	5	-13	39
CCOc1nc(OCC)nc(N2CCC(C)CC2)n1	i	-13	11	-22	6	4	1	x
Clc1ccc(Cl)c(OCc2cc(-c3ccccc3Cl)on2)c1	i	2	-7	6	-11	3	2	x
CCOc1ccc(CC(=O)NCc2cn3c(C)csc3n2)cc1	i	-3	-3	-11	-18	4	6	11
Cc1ccccc1Nc1nnc(SCc2nc3ccccc3c(=O)[nH]2)s1	i	-10	-10	-9	x	x	x	x
CCOc1ccccc1N1CCN(C(=S)NCc2ccc(Cl)cc2)CC1	i	-8	-1	34	-10	0	-4	4
CC1Cc2ccccc2N1Cc1cccc([N+](=O)[O-])c1 (configuration not stated)	i	-3	-9	-8	-8	0	1	x
COc1ccc(NC(=O)C2CC(c3cc(OC)c(OC)c(OC)c3)=NO2)cc1OC (configuration not stated)	i	0	2	10	4	2	-5	-27
CCOC(=O)c1nnc(-c2ccccc2)[nH]c1=O	i	-1	7	-8	-14	2	6	12
CCCCC(c1nnnn1CCOC)N1CCN(c2cccc(OC)c2)CC1 (configuration not stated)	i	-13	20	x	-11	0	-1	x
CC1CCN(CC(O)COCCC23CC4CC(CC(C4)C2)C3)CC1 (configuration not stated)	x	6	2	52	-12	6	2	x
O=C(O)c1cc(O)ccc1-c1ccc(O)cc1	i	-2	10	-1	-9	-2	0	-10

The list goes on:
SMILES	Rce1 inhib	eIF4H inh	PABP FP inh	CSC inhib	UUG fidelity	MT1-MMP act inh	MT1-MMP act inh RFP	Env fusion inh	others
O=C(O)C1CCCCC1C(=O)Nc1ccccn1 (configuration not stated)	i	-2	-2	-8	-5	0	1	1
Cc1cc(CNCc2c(C(=O)N3CCCCCCC3)nc3ccc(Cl)cn23)nn1C	i	2	10	-14	x	-1	3	8
CC(C)C(=O)N(Cc1ccc(F)cc1)Cc1nc2ccccc2c(=O)[nH]1	i	0	-5	9	x	1	-1	-61
COCCNC(=S)Nc1cc(S(=O)(=O)N2CCOCC2)ccc1N1CCCCC1	i	-7	-6	-18	x	1	3	-11
Cc1ccnc(NC(=O)Cc2c(F)cccc2Cl)c1	i	-12	1	-11	-17	-3	-2	8
Cc1cc(C)n(C(C)CC(=O)Nc2ccc(-c3ccno3)cc2)n1 (configuration not stated)	i	3	5	-1	-3	-7	-3	-1
CN(C)c1ccc(NC(=O)COC(=O)CNC(=O)c2cccs2)cc1	x	x	x	-15	-8	-2	0	1
Fc1ccc(N2CCN(c3ncnc4nc[nH]c34)CC2)cc1	i	-1	46	0	-19	5	-8	21
CC/C(C)=N/Nc1nc2sc3c(c2c(=O)[nH]1)CC(C)(C)OC3	i	68	2	2	-29	1	8	x	eIF4H inh retest=15;PABP FP inh retest=2
Fc1ccccc1-c1n[nH]c(=S)n1CC1CCCO1 (configuration not stated)	i	5	-3	8	3	0	0	8
CC1CN(S(=O)(=O)c2ccc(C(=O)NN3CCN(C)CC3)cc2)CC(C)O1 (configuration not stated)	i	-5	u	x	x	0	2	1
C=CCN(C(=O)c1csnn1)C(C(=O)NC1CCCC1)c1c(F)cccc1Cl (configuration not stated)	i	5	8	x	1	-3	0	0
CC(NC(=O)Nc1ccc(F)cc1F)c1ccncc1 (configuration not stated)	i	-8	-2	-4	-19	0	7	-16
Cn1c(C(=O)NCCCN2CCN(c3cccc(Cl)c3)CC2)cc2c(=O)n(C)c3ccccc3c21	i	-12	17	31	8	8	-4	29
CC1(c2ccc(Cl)cc2Cl)NC(=O)N(CC(=O)N2CCN(C(=O)c3ccco3)CC2)C1=O (configuration not stated)	x	x	x	x	7	1	-5	4
COC(=O)[C@@H]1CC[C@H](C)[C@@H](c2ccc(C)cc2)N1C(=O)c1ccc(/C=N/OC[C@@H](O)[C@H]2O[C@@H]3OC(C)(C)O[C@@H]3[C@H]2O)cc1	i	-8	12	x	x	x	x	x
COC(=O)CN(c1ccccc1F)S(=O)(=O)c1ccc(C)cc1	i	-6	-1	4	x	0	-2	26
COC(=O)c1cc(OC)cc(O)c1C(=O)c1c(O)cc(C)cc1O	x	18	8	-8	-1	4	3	x
CC(C)c1ccc(NC(=O)CN2C(=O)NC3(CCCC3)C2=O)cc1	i	-7	6	-9	-4	5	7	-5
CCc1ccc(C2C(C#N)=C(N)SC(N)=C2C#N)s1	i	u	u	0	-15	-319	2	x
COc1ccc(/C(C)=N\O)cc1OC	x	-15	-9	10	x	0	-3	0
O=C(OCC(=O)N1CCc2ccccc2C1)c1ccc(F)cc1Cl	x	x	x	-19	-4	1	6	-19
O=C(COC(=O)Cc1ccc(Cl)cc1Cl)Nc1ccc(OC(F)F)cc1	i	2	-10	-13	x	1	6	1
COc1ccc(C(=O)NCCCc2nc3ccccc3n2Cc2ccccc2C)cc1OC	i	3	-1	-12	-1	-3	-4	67
COc1ccc(NC(=O)CN2CCc3ccccc3C2)cc1S(=O)(=O)N1CCOCC1	i	8	-3	-9	x	3	1	x
COc1ccccc1NC(=O)C1=C(C)Nc2ncnn2C1c1cccs1 (configuration not stated)	i	1	2	-6	0	6	0	x
O=C(COC(=O)c1cc[n+]([O-])cc1)Nc1cccc(F)c1	x	x	x	-16	-12	-4	-1	x
Cc1cc(CNCc2cn(C)nc2-c2ccc(Oc3ccccc3)cc2)on1	i	-4	-9	4	x	-3	-7	2
CC(O)(c1cccc(F)c1)c1nc(-c2cccc3cccnc23)cs1 (configuration not stated)	x	x	x	x	-8	-1	2	11
